Screening results: PubChem, National Center for Advancing Translational Sciences (NCATS)
VACV Venus inh: vaccinia inhibition (Venus reporter); Potency, µM (top dose mostly 36.5 µM), inactives show at the highest dose activity change, negative = inhibition, most hits filed as inhibitors; AID 720580; hit rate 0.46% among 330,000; Vaccinia virus Venus reporter expression, fluorescence; active means well fitted inhibition curve with a large enough effect; inconclusive means small, poorly fitted or top-dose-only effect; inactive means no such curve, though single readings can be large or run the other way; tested in A549 cells; further: nearly all actives have a fitted effect of over 30% in size; inactives centre near -10
VACV mCherry inh: inhibitors of vaccinia virus infection (mCherry reporter signal) | Vaccinia virus mCherry reporter infection, fluorescence; about a quarter of the inactives have no number | Potency, µM (series often up to 36.5 µM), inactives show at the highest dose activity change, negative = inhibition, usual class: inhibitors | AID 720579 | hit rate 0.63% among 310,000; active = well fitted inhibition curve with a large enough effect; inconclusive = small, poorly fitted or top-dose-only effect; inactive = no such curve, though single readings can be large or run the other way; tested in A549 cells; further: nearly all actives have a fitted effect of over 35% in size; inactives centre near -10
An asterisk follows results filed as active; i = inactive; u = inconclusive; x = no result given; [ ] = another dose, or the depositor's remark. On the % scale 0 is the no-effect control and ±100 the full control effect; potency means the concentration at half of the fitted maximal effect.

Molecule | VACV Venus inh | VACV mCherry inh
COc1ccc(COC(=O)N/N=C(\C)CC(=O)NCc2ccc(Cl)cc2)cc1 | -4% | -6%
O=C(COC(=O)/C=C/c1ccccc1[N+](=O)[O-])Nc1ccc(OC(F)F)cc1 | -11% | -14%
O=C(Nc1cc2c3c(c1)CC(=O)N3CCC2)C1CC1 | -13% | i
CCCCN(CC)CCCNC(=O)c1cc2cc3ccc(OC)cc3nc2o1 | 3% | -7%
O=C(NC1CC1)C1CCN(C2CCN(C(=O)/C=C/c3cccs3)CC2)CC1 | 11% | -14%
Cc1ccc(C)c(OCC(=O)NCCN(C)C)c1 | -6% | x
CC(C)(c1ccccc1)c1ccc(OCC(O)CN2CCCC2)cc1 (configuration not stated) | u | -23%
O=C(COC(=O)c1cc(S(=O)(=O)N2CCCCC2)ccc1N1CCOCC1)c1ccc(F)cc1 | 0% | i
Cn1c(N)c(C(=O)COC(=O)c2cncc(Br)c2)c(=O)n(C)c1=O | 2% | i
CC(=O)c1ccc(NC(=O)COC(=O)c2ccc(F)cc2F)cc1 | 4% | -7%
COCCCN(C(=S)Nc1c(C)cc(C)cc1C)C(C)c1ccccn1 (configuration not stated) | -1% | i
Nc1c(C(=O)Nc2ccc3c(c2)OCCO3)nnn1Cc1cccc(F)c1 | -15% | -13%
Cc1ccc(S(=O)(=O)N2CCN(CC(=O)N/N=C/c3ccco3)CC2)cc1 | -17% | -13%
CC1C(c2ccccc2)=[N+]([O-])C2(CCCCC2)N1O (configuration not stated) | u | x
COc1ccc(N(CC(=O)Nc2cc(Cl)ccc2C)S(=O)(=O)c2c(C)noc2C)cc1 | -16% | -22%
COc1ccc(-c2nn(-c3ccccc3)cc2/C=N/NC(N)=S)cc1OC | u | u
O=C(C1CC1)N1CCc2cc(Br)cc(S(=O)(=O)N3CCN(c4cccc(C(F)(F)F)c4)CC3)c21 | -3% | -6%
CC(C)(O)CCCC(C)(O)c1ccc(C(=O)O)cc1O (configuration not stated) | -6% | 1%
O=C(CN(CCc1ccccc1)S(=O)(=O)c1ccc(Cl)cc1)N/N=C/c1ccccc1C(=O)O | -9% | -7%
O=C(COC(=O)c1cccs1)NC12CC3CC(CC(C3)C1)C2 | -6% | i
COc1cc(CCC(=O)Nc2cc(C)cc(C)c2)cc(OC)c1OC | -7% | -4%
NS(=O)(=O)c1ccc(NC(=O)Cn2ncc3c2-c2ccccc2OC3)cc1 | -24% | i
COc1cc2cc(C(=O)NCCc3ccccc3)[nH]c2cc1OC | -9% | -10%
COc1ccc2oc(C(=O)OCC(=O)c3ccc4c(c3)OCCO4)c(C)c2c1 | -10% | -10%
Brc1ccc2nc(-c3ccccc3)c(Cc3ccsc3)n2c1 | 0% | i
Cc1cccc(CNC(=O)Cn2nc(C)c3nn(-c4ccc(Cl)cc4)c(C)c3c2=O)c1 | -23% | u
O=C(COC(=O)Cc1ccccc1F)NNC(=O)c1ccc([N+](=O)[O-])cc1 | 14% | i
CCc1ccc2c(CSc3nnnn3C)cc(=O)oc2c1 | -7% | -2%
CCN(CC)C(=O)Cn1cc(C(=O)C(=O)N2CCN(C)CC2)c2ccccc21 | -9% | -15%
Cc1cccnc1NC(=O)C12CCC(C)(C(=O)O1)C2(C)C (configuration not stated) | -8% | i
Fc1ccccc1CSc1nnc(-c2cccnc2)o1 | -11% | 18%
COc1ccccc1C(=O)NCCC(=O)NC(C)c1ccc(-n2ccnc2)cc1 (configuration not stated) | -14% | -23%
O=C1CCC(C(=O)N2CCCCO2)CN1CCc1ccc(Cl)cc1 (configuration not stated) | -8% | i
CCSc1ncc(Cl)c(C(=O)Nc2ccc(S(=O)(=O)Nc3ncccn3)cc2)n1 | -4% | -18%
COc1ccc(C(=O)c2oc3ccccc3c2NC(=O)c2cccc(OC)c2)cc1 | -12% | -13%
Cc1ccc(NC(=O)Nc2cc(S(C)(=O)=O)ccc2Cl)cc1 | -21% | i
Sc1oc(-c2ccccc2)cc1C=Nc1ccccc1 | -2% | -14%
Cc1cc(C)c(C#N)c(SCc2ccc(C(=O)O)cc2)n1 | -10% | i
CCCN(CCC)C(=O)CSc1nnc2cc(C)c3ccccc3n12 | -2% | -3%
Cc1cccc(N2CCN(C(=O)c3c(C)nn(Cc4ccccc4Cl)c3C)CC2)c1C | u | x
O=S(=O)(Nc1cccc(Oc2cnccn2)c1)c1ccc(F)cc1 | -1% | i
COc1ccccc1-c1ccc2c(c1)C(C)(Cc1ccc(OC(F)(F)F)cc1)C(=O)N2 (configuration not stated) | -7% | i
CCCCC(=O)N1CC(=O)Nc2ccc(F)cc2C1c1ccccc1 (configuration not stated) | -13% | 0%
CS(=O)(=O)Cc1ccc(C(=O)NC2CCCc3ccccc32)cc1 (configuration not stated) | -8% | i
CCCCCC(=O)c1ccc(O)cc1O | -18% | i
CC(C)CC(N)c1csc(NC(=O)Nc2ccccc2C(C)(C)C)n1 (configuration not stated) | -25% | 0%
Fc1ccc(C2CC(c3cccs3)=NN2c2ccccc2)cc1 (configuration not stated) | -7% | -9%
CCCCN(C(=O)c1ccc(N2CCCC2=O)cc1)c1c(N)n(Cc2ccccc2)c(=O)[nH]c1=O | -7% | -16%
Cc1c(NC(=O)CN2C(=O)NC(CCc3ccccc3)C2=O)c(=O)n(-c2ccccc2)n1C (configuration not stated) | -6% | i
COc1ccc(-c2nnc(NC(=O)C3CC3)o2)cc1 | -17% | i
O=C(CCN1C(=O)CC1c1ccco1)N1CCOCC1 (configuration not stated) | -2% | 3%
Cc1nc2nc[nH]n2c(=O)c1NS(=O)(=O)c1ccc(C(C)(C)C)cc1 | -11% | -3%
O=C(COC(=O)c1ccccc1OCCOc1ccccc1)Nc1ccccc1Br | -16% | -7%
COc1cccc(NC(=O)COC(=O)C2C3CC4OC(=O)C2C4C3)c1 (configuration not stated) | 7% | 6%
Cc1ccc(CN2CCN(C(=O)c3ccco3)CC2)cc1 | -6% | x
Cc1noc(C)c1NC(=O)N(C)C[C@H]1Oc2ccc(NC(=O)Cn3cnnn3)cc2C(=O)N([C@H](C)CO)C[C@@H]1C | 0% | i
CC(C)n1cc(/C=N/Nc2ccc(C(=O)O)cc2)c2ccccc21 | -16% | -21%
O=C1C(Nc2ccccc2)=CC(=O)c2ncccc21 | -23%[60.7 µM] | -7%[60.7 µM]
CC(Sc1nc(-c2ccccc2)cc(C(F)(F)F)n1)C(=O)Nc1sc2c(c1C(N)=O)CCC2 (configuration not stated) | -8% | -10%
Cc1ccc2c(c1)N(Cc1ccccn1)C(=O)C(C)O2 (configuration not stated) | -5% | -9%

Molecules from the list above with a furan ring, fused or not, in the order listed:
Molecule | VACV Venus inh | VACV mCherry inh
CCCCN(CC)CCCNC(=O)c1cc2cc3ccc(OC)cc3nc2o1 | 3% | -7%
Cc1ccc(S(=O)(=O)N2CCN(CC(=O)N/N=C/c3ccco3)CC2)cc1 | -17% | -13%
COc1ccc2oc(C(=O)OCC(=O)c3ccc4c(c3)OCCO4)c(C)c2c1 | -10% | -10%
COc1ccc(C(=O)c2oc3ccccc3c2NC(=O)c2cccc(OC)c2)cc1 | -12% | -13%
Sc1oc(-c2ccccc2)cc1C=Nc1ccccc1 | -2% | -14%
O=C(CCN1C(=O)CC1c1ccco1)N1CCOCC1 (configuration not stated) | -2% | 3%
Cc1ccc(CN2CCN(C(=O)c3ccco3)CC2)cc1 | -6% | x

Structures shown so far that contain a nitro group on carbon:
Molecule | VACV Venus inh | VACV mCherry inh
O=C(COC(=O)/C=C/c1ccccc1[N+](=O)[O-])Nc1ccc(OC(F)F)cc1 | -11% | -14%
O=C(COC(=O)Cc1ccccc1F)NNC(=O)c1ccc([N+](=O)[O-])cc1 | 14% | i

Further entries follow:
Molecule	VACV Venus inh	VACV mCherry inh
Cc1ccc(NC(=O)CSc2nnc3ccc(-c4ccncc4)nn23)cc1	-16%	i
CCC(C)n1cnc2c(c1=O)c1nc3ccccc3nc1n2Cc1ccccc1OC (configuration not stated)	-5%	x
COc1ccc(S(=O)(=O)N2CCC3(CC2)OCCN3S(=O)(=O)c2cccs2)cc1	-20%	0%
COc1ccc(S(=O)(=O)N2CCCCCC2)cc1NC(=O)CN1C(=O)NC(C)(c2ccccc2)C1=O (configuration not stated)	-9%	i
COCC(=O)Nc1c(C(=O)Nc2ccc3c(c2)OCO3)oc2ccccc12	-4%[7.34 µM]	-3%[7.34 µM]
O=C(NCCCN1CCCC1=O)c1cccc(C(F)(F)F)c1	-18%	-11%
CN(CC(=O)N1CCc2ccccc21)S(=O)(=O)c1cccs1	u	x
COC(=O)[C@]12CCCCC=C1N(Cc1ccc(Cl)cc1Cl)C(=O)[C@H](CC(=O)NCCC(C)C)C2	0%	i
CCOc1ccc(OCc2cccc(C(=O)Nc3ccc(CN4CCCCC4)cc3)c2)cc1	u	u
CCOC(=O)CN1CC23C=CC(O2)C(C(=O)NCc2ccc(C)cc2)C3C1=O (configuration not stated)	-5%	i
Cc1sc(NC(=O)c2ccccc2F)c(CN2CCCCC2C)c1C (configuration not stated)	-5%	-14%
COc1ccc(CCNc2nc(-c3ccccc3OC)cc(C(F)(F)F)n2)cc1OC	-16%	-17%
CN(C)C=Nc1ncc2c3ccccc3n(Cc3ccccc3)c2c1C#N	5%	x
CSc1cccc(NC(=S)N2CCCN(Cc3ccc(F)cc3)C2)c1	-25%	-8%
CCOc1ccc(CCn2c3c(c(=O)[nH]c2=O)C(NC(=O)c2ccccc2)(C(F)(F)F)C(=O)N3)cc1OCC (configuration not stated)	-10%	4%
C=C1CCN([C@@H](CC(C)C)C(=O)NCc2ccc(Cl)cc2)S(=O)(=O)c2ccccc21	-7%	i
O=C(NCCN1CCN(C(=O)c2ccc(Br)cc2)CC1)c1ccc(Br)cc1	-10%	-13%
Cc1cc(C)c(S(=O)(=O)NCC(c2ccc(N(C)C)cc2)N2CCOCC2)c(C)c1 (configuration not stated)	-15%	-9%
Cc1nc2ccn(Cc3cccs3)c(=O)c2cc1C(=O)Nc1ccccc1	-6%	-10%
O=C(COC(=O)Cc1ccc(Br)cc1)NC1CCCC1	-14%	i
Cc1ccc(CNC(=O)c2cccc(-n3cnnn3)c2)cc1	-3%	i
CCOCc1c(C(=O)Nc2ccc3nc(N4CCOCC4)sc3c2)oc2ccccc12	-27%	-22%
COC(=O)[C@]12CCCCC=C1N(Cc1ccc3c(c1)OCO3)C(=O)[C@H](CC(=O)NCc1ccc(OC)c(OC)c1)C2	-16%	3%
O=C(N/N=C/c1cccc(OC2CSC2)c1)c1ccccc1O	u	x
C[n+]1c(-c2ccccc2)c2cc(N)ccc2c2ccc(N)cc21	126%[activator]	u
Cc1cccc(N(C)S(=O)(=O)c2ccc3c(c2)NC(=O)CC(=O)N3)c1	-6%	-3%
CCCNS(=O)(=O)c1cc2c(cc1Br)CCN2C(=O)CC	0%	-6%
Cc1ccccc1NC(=O)CN(C)S(=O)(=O)c1cccc2nsnc12	-6%	0%
O=C(CSc1ncnc2c1nnn2Cc1ccccc1F)NCC1CCCO1 (configuration not stated)	0%	i
O=C(Cc1ccccc1)NNC(=O)C1CCN(c2ncccn2)CC1	-7%	i
CCn1nc(C)c(C2C(C#N)=C(N)Oc3n[nH]c(C)c32)c1C (configuration not stated)	-14%	i
COc1cccc(Oc2nc3c(c(=O)n(Cc4ccccc4Cl)c(=O)n3C)n2C)c1	-4%	i
CC1(C(=O)Nc2ccc3c(c2)OCCO3)CCN1C(=O)c1ccccc1CCc1ccccc1 (configuration not stated)	-7%	-13%
Cc1c(C(=O)Nc2ccccc2)sc2ncn(CC(=O)N3CCCCC3)c(=O)c12	0%	-2%
CCOC(=O)c1c(NC(=S)Nc2ccc(C)cc2)sc2c1CCC2	-8%	-17%
CC(C)=CCN1CCNC(=O)C1CC(=O)NCc1nc(C)c(C)s1 (configuration not stated)	-2%	i
CCCN1C(=O)c2cc(C(=O)NC3CCCCCC3)ccc2C1O (configuration not stated)	-7%	12%
COc1ccc(Nc2c3ccccc3nc3ccccc23)cc1	u	u
O=C(/C=C/c1ccco1)NC(=S)Nc1ccc(C(=O)O)cc1	-3%	-9%
CC1(C)Cc2c(sc3nc(-c4cccs4)n(N)c(=O)c23)CO1	u	u
Cc1cc(OC(C)C(=O)N(Cc2ccc(N(C)C)cc2)Cc2ccco2)ccc1Cl (configuration not stated)	-7%	-16%
CCOC(=O)CSc1nc(C(C)(C)C)cc(C(F)(F)F)c1C#N	-4%	-10%
C/C(=N\N1CCN(c2ccccc2)CC1)c1ccncc1	-2%	i
Cc1nc2c(-c3ccc(F)cc3)c(C)nn2c(C)c1CCC(=O)NC(C)CCc1ccco1 (configuration not stated)	u	u
COc1cccc(NC(=O)CN(C)C(=O)CSc2ccc3c(c2)OCCO3)c1	-10%	-18%
COc1ccccc1C(=O)NCCN1CCC(n2c(=O)[nH]c3ccccc32)CC1	-1%	-11%
O=C(/C=C/c1ccc(Cl)cc1)N(c1ccccn1)C1CCCCC1	-15%	-12%
